DUX4 txn inh: blocks DUX4-driven transcriptional activation; 293T-iDUX4 ZSCAN4-Gaussia luciferase reporter, 24 h; stronger effect = lower value; actives 0.8% (n = 37,000); activity change, negative = inhibition, % (test concentration not listed); AID 1224904;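 active = -10% or lower and over 25 points stronger than a control reporter; inconclusive = -10% or lower with a smaller gap; inactive = above -10%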;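 note: 0% = median of neutral control wells and -100% = median of positive control wells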
DUX4 txn inh difference: recorded beside DUX4 txn inh, whose call it bears; Gaussia minus Italica difference, %; measured here: selective DUX4 reporter inhibition;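 worked out from the two reporters; negative = selective loss of the DUX4 reporter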
DUX4 txn inh control: also measured in DUX4 txn inh; calls as there; activity change, negative = inhibition, %; measured here: Italica tet-on control reporter;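 0 = neutral control and -100 = positive control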
* = called active by the depositor; ? = inconclusive; / = no result given; & = joins results of further samples. Only part of the results is shown (hit frequency here may not be typical).

SMILES,DUX4 txn inh,DUX4 txn inh difference,DUX4 txn inh control
C[C@@H]1CN([C@H](C)CO)C(=O)c2cc(C3=CCCCC3)cnc2O[C@H]1CN(C)CC1CCOCC1,-2.9,1.9,-4.8
COc1ccccc1NC(=O)N1C[C@@H]2N[C@H](C1)C2c1ccc(-c2cccc(C#N)c2)cc1 (stereo partly drawn),?,/,/
COCC(=O)NC[C@@H]1[C@H](c2ccc(C3=CCCC3)cc2)[C@@H](CO)N1C(C)=O,2.3,-2.5,4.8
CCCNC(=O)C[C@@H]1CC[C@H]2[C@@H](COC[C@@H](O)CN2Cc2ccc(Cl)c(Cl)c2)O1,-8.2,-2.5,-5.7
COCC(=O)N1[C@H](CNC(=O)c2ccccn2)[C@@H](c2ccccc2)[C@@H]1CO,-3.7,-1.4,-2.3
COC(=O)C[C@H]1CC[C@@H]2[C@@H](COc3ccc(NC(=O)c4cccc(F)c4)cc3C(=O)N2C)O1,2.8,0.8,2.0
C[C@@H]1CN([C@H](C)CO)C(=O)Cc2cc(NC(=O)CCC(F)(F)F)ccc2O[C@@H]1CN(C)CC1CC1,-0.1,3.6,-3.7
CNC[C@H]1Oc2ccc(NC(=O)CCN3CCOCC3)cc2CC(=O)N([C@H](C)CO)C[C@@H]1C,-1.7,-0.7,-1.0
O=C(C[C@H]1CC[C@@H](NC(=O)C2CCOCC2)[C@@H](CO)O1)NCc1ccccc1Cl,1.1,-3.3,4.4
CCC(=O)N1CC2(C1)CN(Cc1nccs1)[C@@H](CO)c1c2c2ccc(OC)cc2n1C,20.0,17.3,2.8
COc1cccc(CN2CC3(CN(Cc4ccccn4)C3)c3c([nH]c4cc(OC)ccc34)[C@H]2CO)c1,?,/,/
CC(C)(O)C#Cc1ccc([C@@H]2[C@H]3CN(C(=O)c4ccc(F)cc4)CCCCN3[C@H]2CO)cc1,3.6,-4.3,7.9
CC(C)NC(=O)N1CC2(C1)[C@H](c1ccccc1)[C@@H](CO)N2C(=O)C1CCCC1,2.2,-3.4,5.7
COC(=O)C[C@H]1C[C@H]2c3cc(N)ccc3O[C@H]2[C@@H](CO)O1,4.4,-3.9,8.3
CCCNC(=O)N1[C@H](C#N)[C@H](c2ccccc2)[C@H]1CO,-0.1,-2.3,2.2
COCC(=O)N1CC(=O)N2[C@H](CO)[C@@H](c3ccc(C#CC4CC4)cc3)[C@@H]2C1,3.1,-4.2,7.2
CO[C@@H]1CN(C)C(=O)c2cc(NC(=O)c3ccccc3F)ccc2OC[C@H](C)N(CC2CCOCC2)C[C@@H]1C,9.1,8.7,0.3
Cc1ccccc1-c1ccc(C2[C@H]3CNC[C@@H]2N3C(=O)Nc2ccc(C(F)(F)F)cc2)cc1 (stereo partly drawn),16.6&5.8,-6.9&-2.3,23.5&8.1
CCCC#Cc1cnc2c(c1)C(=O)N([C@H](C)CO)C[C@@H](C)[C@@H](CN(C)C(=O)Cc1ccccc1)O2,0.7,-1.0,1.7
O=C(CCN1CCCCC1)NCC[C@@H]1CC[C@@H](NS(=O)(=O)c2cccc(Cl)c2)[C@H](CO)O1,1.3,-3.4,4.7
O=C(Nc1cc(F)ccc1F)N1CCCCN2[C@H](C1)[C@H](c1ccc(C3=CCCCC3)cc1)[C@@H]2CO,?,/,/
CO[C@@H]1CC[C@@H]2CCOc3c(C#N)cccc3C(=O)N(C)C[C@H](C)C(=O)N(C)C[C@H]1O2,-3.1,-1.5,-1.6
COCC(=O)NC[C@H]1N[C@H](CO)[C@H]1c1ccc(C2=CCCCC2)cc1,-2.5,-6.4,3.9
COc1ccccc1-c1ccc2c(c1)[C@@H]1[C@@H](CCN1S(=O)(=O)c1ccccc1OC)[C@H](CO)N2,2.5,39.1,-36.6
Cc1ccc(S(=O)(=O)N(C)C[C@H]2Oc3c(NS(C)(=O)=O)cccc3C(=O)N([C@@H](C)CO)C[C@H]2C)cc1,0.4,0.8,-0.4
O=C(C[C@H]1C[C@@H]2c3cc(NC(=O)c4ccc5c(c4)OCO5)ccc3O[C@@H]2[C@H](CO)O1)NCCc1ccccc1,-1.4,-5.6,4.3
CN1C(=O)c2cc(NC(=O)Nc3ccccc3F)ccc2OC[C@H]2O[C@H](CC(=O)NCc3ccc(-c4ccccc4)cc3)CC[C@@H]21,-1.9,-1.9,-0.1
COc1ccccc1CNC(=O)C[C@H]1C[C@H]2c3cc(NC(=O)Nc4ccc(C(F)(F)F)cc4)ccc3O[C@H]2[C@@H](CO)O1,1.7,-2.9,4.6
C[C@@H]1CN([C@@H](C)CO)C(=O)c2cccc(N(C)C)c2O[C@H]1CN(C)Cc1ccc2c(c1)OCO2,-1.3,2.0,-3.3
CO[C@@H]1CC[C@@H]2CCOc3ccc(C#N)cc3C(=O)N(C)C[C@@H](C)C(=O)N(C)C[C@H]1O2,2.9,1.6,1.3
O=C(O)C[C@@H]1CC[C@@H](NC(=O)c2ccccc2F)[C@@H](CO)O1,2.2,1.9,0.4
C[C@@H]1CCCCO[C@@H](CN(C)C(=O)Nc2ccc3c(c2)OCO3)[C@@H](C)CN([C@@H](C)CO)C(=O)c2cc(NC(=O)Nc3ccc(C(F)(F)F)cc3)ccc2O1,4.3,2.4,1.9
COc1ccc2c3c([nH]c2c1)[C@@H](CO)N(C(=O)c1ccc(F)cc1)CC31CCN(Cc2cccnc2)CC1,6.0,5.1,0.8
COCC(=O)N1[C@H](CO)[C@H]2c3ccccc3N(C(=O)C3CC3)C[C@H]21,-0.6,-2.4,1.8
CO[C@H]1CN(C)C(=O)c2cc(C#N)ccc2OC[C@@H]2O[C@H](CC[C@H]2OC)CCN(C)C(=O)[C@H]1C,4.4,6.9,-2.5
O=C(C[C@H]1C=C[C@H](NC(=O)c2cccnc2)[C@@H](CO)O1)NCCN1CCCCC1,8.8,4.5,4.3
CN(C)CC(=O)N1CC(=O)N2[C@H](CO)[C@@H](c3ccc(/C=C/c4ccccc4)cc3)[C@H]2C1,-2.8,0.1,-2.9
CO[C@@H]1CN(C)C(=O)c2cc(NC(=O)c3ccc4c(c3)OCO4)ccc2OC[C@@H](C)N(CC2CC2)C[C@H]1C,-6.1,-6.9,0.8
CCCC#Cc1ccc([C@@H]2[C@@H](CO)N3C(=O)CN(S(=O)(=O)Cc4ccccc4)C[C@H]23)cc1,-4.2,4.5,-8.8
O=C(NCC(F)(F)F)[C@@H]1[C@@H](CO)[C@@H]2Cn3c(cccc3=O)[C@H]1N2CCC(F)(F)F,-2.8,-1.9,-0.9
NCC[C@@H]1CC[C@H](NS(=O)(=O)c2ccc(Cl)cc2)[C@H](CO)O1,8.9,6.3,2.6
C[C@@H]1CN([C@@H](C)CO)C(=O)c2cc(NC(=O)CCC(F)(F)F)ccc2O[C@@H](C)CCCCO[C@@H]1CN(C)Cc1ccc2c(c1)OCO2,3.9,2.1,1.8
O=C(N[C@H]1CC[C@H](CCn2cc(-c3ccccc3)nn2)O[C@H]1CO)c1ccccc1F,?,/,/
COc1ccc(NC(=O)N(C)C[C@@H]2OCCCC[C@H](C)Oc3ccc(NC(=O)c4ccncc4)cc3C(=O)N([C@@H](C)CO)C[C@H]2C)cc1,1.0,2.6,-1.6
C[C@H](CO)N1C[C@H](C)[C@H](CN(C)S(=O)(=O)c2cn(C)cn2)OCCCC[C@H](C)Oc2ccc(NC(=O)c3ccncc3)cc2C1=O,2.1,2.9,-0.8
O=C(c1cccc(F)c1)N1CC2(C1)[C@H](c1ccccc1)[C@@H](CO)N2Cc1ccccn1,?,/,/
OC[C@@H]1[C@H](c2ccc(-c3cccc(F)c3)cc2)[C@H]2CN(CCC(F)(F)F)CCCCN12,-46.7*,-25.9*,-20.8*
O=C(NCC[C@H]1CC[C@H](NC(=O)c2ccccc2F)[C@@H](CO)O1)c1cnccn1,-0.9,3.0,-3.9
Cc1ccc(S(=O)(=O)N2CC[C@@H]3[C@@H](CO)Nc4ccc(C#Cc5cccc(F)c5)cc4[C@@H]32)cc1,7.2,1.5,5.6
COc1ccccc1C#Cc1ccc2c(c1)[C@@H]1[C@@H](CCN1S(=O)(=O)c1cn(C)cn1)[C@@H](CO)N2,18.2,17.4,0.8
CCC(=O)N(C)C[C@H]1Oc2ncc(C#CC(C)C)cc2C(=O)N([C@@H](C)CO)C[C@@H]1C,4.2,2.1,2.0
COCC(=O)N1[C@H](CO)[C@@H]2c3ccccc3N(C(=O)c3cccc(OC)c3)C[C@@H]21,-3.4,-3.4,0.0
CC(C)NC(=O)Nc1cccc2c1O[C@H](CN(C)C(=O)Nc1ccccc1)[C@@H](C)CN([C@@H](C)CO)C2=O,-1.6,1.0,-2.5
O=C(C[C@@H]1CC[C@H](NS(=O)(=O)c2ccc(F)cc2)[C@@H](CO)O1)NCCc1ccncc1,-2.2,-7.9,5.7
C[C@H](CO)N1C[C@H](C)[C@H](CN(C)Cc2ccc(F)cc2)OCc2ccccc2-c2c(n(C)c3ccccc23)C1=O,?,/,/
C[C@@H](NC(=O)C[C@@H]1CC[C@H]2[C@@H](COC[C@@H](O)CN2Cc2ccc(C(F)(F)F)cc2)O1)c1ccccc1,-2.6,-1.7,-0.9
C[C@H](CO)N1C[C@H](C)[C@H](CN(C)Cc2cccc3c2OCCCO3)OCc2cnnn2CCCC1=O,3.0,-1.2,4.2
COc1cccc(C#Cc2ccc([C@@H]3[C@H]4CN(C(=O)Cc5cccnc5)CC(=O)N4[C@H]3CO)cc2)c1,2.0,2.5,-0.6
COc1ccc(C(=O)Nc2ccc3c(c2)C(=O)N(C)[C@H]2CC[C@@H](CC(=O)NCC4CC4)O[C@@H]2CO3)cc1,4.0,-0.6,4.7
C[C@@H]1CN([C@H](C)CO)C(=O)c2cc(NC(=O)CCN3CCOCC3)ccc2O[C@H]1CN(C)Cc1ccc(C(F)(F)F)cc1,0.0,-3.1,3.1

Some of the entries so far, with values ahead of the structure.
DUX4 txn inh | DUX4 txn inh difference | DUX4 txn inh control | Compound
7.2 | 1.5 | 5.6 | Cc1ccc(S(=O)(=O)N2CC[C@@H]3[C@@H](CO)Nc4ccc(C#Cc5cccc(F)c5)cc4[C@@H]32)cc1
18.2 | 17.4 | 0.8 | COc1ccccc1C#Cc1ccc2c(c1)[C@@H]1[C@@H](CCN1S(=O)(=O)c1cn(C)cn1)[C@@H](CO)N2
4.2 | 2.1 | 2.0 | CCC(=O)N(C)C[C@H]1Oc2ncc(C#CC(C)C)cc2C(=O)N([C@@H](C)CO)C[C@@H]1C
-3.4 | -3.4 | 0.0 | COCC(=O)N1[C@H](CO)[C@@H]2c3ccccc3N(C(=O)c3cccc(OC)c3)C[C@@H]21
-1.6 | 1.0 | -2.5 | CC(C)NC(=O)Nc1cccc2c1O[C@H](CN(C)C(=O)Nc1ccccc1)[C@@H](C)CN([C@@H](C)CO)C2=O
-2.2 | -7.9 | 5.7 | O=C(C[C@@H]1CC[C@H](NS(=O)(=O)c2ccc(F)cc2)[C@@H](CO)O1)NCCc1ccncc1

Additional entries
SMILES,DUX4 txn inh,DUX4 txn inh difference,DUX4 txn inh control
COc1ccc2c3c(n(C)c2c1)[C@H](CO)N(C(=O)Nc1cccc(F)c1)CC31CCN(C)CC1,?,/,/
COC(=O)C[C@@H]1CC[C@@H]2[C@H](COC[C@H](O)CN2C(=O)Nc2ccccc2OC)O1,1.7,3.2,-1.4
C[C@H](CO)N1C[C@H](C)[C@@H](CN(C)Cc2ccc(Oc3ccccc3)cc2)Oc2ccc(NC(=O)Cn3cnnn3)cc2CC1=O,1.4,2.1,-0.6
CC=Cc1ccc2n(c1=O)C[C@H]1[C@H](CO)[C@@H](C(=O)NC3CCC3)[C@@H]2N1Cc1cccnc1 (mixture of isomers),9.2,1.1,8.2
C[C@H]1CN([C@@H](C)CO)C(=O)c2c(c3ccccc3n2C)-c2ccccc2CO[C@@H]1CN(C)Cc1ccc(C(F)(F)F)cc1,-48.5*,-26.7*,-21.8*
CN(C)CCCNC(=O)C[C@H]1CC[C@@H]2[C@@H](COc3ccc(NC(=O)c4ccc5c(c4)OCO5)cc3C(=O)N2C)O1,2.7,-0.2,2.9
C[C@@H]1CCCCO[C@H](CN(C)S(=O)(=O)c2ccc(F)cc2)[C@@H](C)CN([C@@H](C)CO)C(=O)c2cc(N(C)C)ccc2O1,2.4,-1.4,3.7
CN(C)C(=O)[C@@H]1[C@@H](CO)[C@@H]2Cn3c(ccc(-c4cccc(F)c4)c3=O)[C@H]1N2CC1CC1,8.9,5.9,3.0
COC(=O)C[C@H]1CC[C@@H]2[C@H](COC[C@@H](O)CN2S(=O)(=O)c2ccc(F)cc2)O1,9.4,7.6,1.8
CC(C)NC(=O)N1[C@H](CO)[C@@H](c2ccccc2-c2ccc(F)cc2)[C@@H]1C#N,5.1,-1.7,6.8
CN(C)C(=O)C[C@H]1C=C[C@@H](NS(=O)(=O)c2ccccc2)[C@@H](CO)O1,6.4,7.1,-0.7
O=C1CCCn2cc(nn2)COCCN1,-0.5,-3.8,3.3
